AmpC nodet inh: inhibitors of E. coli AmpC beta-lactamase without detergent; 71,000 compounds, 1.8% hits; P00811; AmpC nitrocefin hydrolysis, absorbance 480 nm, no detergent; potencies from a single point are estimates; Potency, µM (titrated, usually from 28.7 µM), inactives show top-dose activity change, negative = inhibition; AID 585; active = falling curve, for most hits resting on a single point; inconclusive = weak or doubtful change; inactive = flat or rising curve; also: % of control where 0% means no effect; about half of the hits show no inhibition at the top dose; a quarter of the inactives give rising signals
Target sequence (P00811 whole entry, looked up): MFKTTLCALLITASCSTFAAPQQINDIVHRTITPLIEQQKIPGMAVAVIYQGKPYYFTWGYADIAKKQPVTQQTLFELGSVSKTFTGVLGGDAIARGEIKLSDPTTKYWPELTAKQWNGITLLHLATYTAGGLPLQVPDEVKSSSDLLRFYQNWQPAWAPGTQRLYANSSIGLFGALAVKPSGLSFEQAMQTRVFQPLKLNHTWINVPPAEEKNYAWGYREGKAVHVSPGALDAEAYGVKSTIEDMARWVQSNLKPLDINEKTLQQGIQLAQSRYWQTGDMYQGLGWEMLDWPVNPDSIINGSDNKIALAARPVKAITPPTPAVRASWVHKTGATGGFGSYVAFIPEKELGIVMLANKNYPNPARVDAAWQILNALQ
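Enzyme, pH 7.0 phosphate. Compound titrations were pre-incubated with AmpC for 15 min at room temperature before nitrocefin (stock 800 uM) addition; product formation was recorded at 480 nm every 20 s for 4 min.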
The depositor's hits bear a star; [ ] = remark or other dose. Potency is read from the fitted curve at half-maximal effect.

SMILES	AmpC nodet inh
Cc1cc(N2C(=O)C3CC=CCC3C2=O)cc(C)c1Br (stereo not drawn)	32%
Cc1ccc(C2(c3ccc(C)cc3)NC(=O)N(Cc3c(C)noc3C)C2=O)cc1	21%
CS(=O)(=O)N(CC(=O)NCc1ccco1)c1cc(C(F)(F)F)ccc1Cl	16%
CCC(C)[C@H](NC(=O)NCc1cccs1)C(=O)OC (stereo partly drawn)	-2%
N=C(N)c1ccc(N)cc1	1%
COc1ccc(NC(=O)C2CCN(c3nc(C)nc4c3CCC4)CC2)cc1	14%
Cc1cccc2nc(CSc3nncn3-c3ccccc3)cn12	10%
O=c1c(-c2ccc(F)cc2)nc2cnc(N3CCNCC3)nc2n1Cc1ccc(F)cc1	121%
O=S(=O)(c1cccc2ccccc12)N1CCSC1	-7%
COC(=O)Oc1nsnc1N1CCOCC1	-15%
CCc1cccc(OCCCCNCCOC)c1	2%
COc1ccc(CCNS(=O)(=O)c2cccc(F)c2)cc1OC	8%
COC(=O)c1ccc(C(NC(=O)OCc2ccccc2)/C(=C/[C@@H](C)C(=O)NCc2nc3ccccc3s2)c2cccnc2)cc1 (stereo partly drawn)	94%
O=C(CN1C(=O)COc2ccccc21)N(Cc1ccc2c(c1)OCO2)CC1CCCO1 (stereo not drawn)	34%
COC(=O)c1ccc2[nH]c(C)c(CN3CCCC3)c(=O)c2c1	-16%
Cc1ccc(C)c(N2CCN(C(=O)CN3C(=O)c4ccccc4C3=O)CC2)c1	69%
COc1ccc(-c2nnc(SCC(=O)N3CCC(Cc4ccccc4)CC3)o2)cc1OC	133%
COc1ccc(N2CCN(C(=O)C(Cc3ccccc3)n3cccc3)CC2)cc1 (stereo not drawn)	51%
COCCCNCC(=O)Nc1ccc(OC(F)(F)F)cc1	3%
CC(C)CN1C(=O)c2ccc(C(=O)Nc3nccs3)cc2C1=O	16%
CC(=O)Nc1ccc(-c2nnc(SCC(=O)n3c4c(c5ccccc53)CCCC4)n2C)cc1	54%
CN(C)CCCNC(=O)c1ccc(-c2ccccc2)cc1	8%
CC(=O)c1c(C)nn(CCC(=O)O)c1C	4%
CCc1ccccc1-n1c(SCC(=O)NC)nnc1-c1cccnc1	5%
O=C(Cc1ccccc1)NCCCN1CCN(CCCNC(=O)Cc2ccccc2)CC1	5%
CNc1ncncc1-c1ccccc1OC	0%
COC(=O)[C@]1(C)CCC(c2ccc(C)cc2)=C(CC(=O)O)C1	12%[5.75 µM]
COc1ccc(C2CC(c3cccs3)n3nc(N)nc3N2)cc1 (stereo not drawn)	23%
Cc1cc(C)c2cc(C(O)c3nnnn3Cc3ccccc3)c(=O)[nH]c2c1 (stereo not drawn)	0%
COCC(=O)n1nc(NCc2ccc(OC)cc2)nc1NCc1ccc(OC)cc1	70%
Cn1c(=O)oc2cc(S(=O)(=O)N3CCCC(C(=O)N4CCn5c4nc4ccccc45)C3)ccc21 (stereo not drawn)	4µM*[single pt active]
CS(=O)(=O)N(CC(=O)N1CCCCCC1)c1ccccc1	14%
CC1CCN(CCCNC(=O)c2cc3sccc3n2C)CC1	1%
NC(=O)c1ccc(N2CCCCC2)c(N2C(=O)C3C4C=CC(C4)C3C2=O)c1 (stereo not drawn)	10%
CCOC(=O)N1CCN(C(=O)c2ccc(Cn3c(=S)[nH]c4cc5c(cc4c3=O)OCO5)cc2)CC1	109%
Cc1cnc(NC(=O)CN(C)S(=O)(=O)c2ccc(Cl)cc2)s1	-4%
COc1ccc2c(=O)cc(C(F)(F)C(F)(F)F)oc2c1	0%
CC(=O)Nc1c(C(=O)O)oc2ccc(Cl)cc12	0%
Cc1cccc(NCc2ccccc2O)c1	-17%
COc1cc2c(cc1OC)CN(Cc1nc3ccsc3c(=O)[nH]1)CC2	14%
Cc1noc(/C=C/NCc2cccnc2)c1S(=O)(=O)N(C)CC(=O)N1CCc2ccccc21	96%
COC(=O)CNC(=O)Cc1c(F)cccc1Cl	-4%
O=C(CSc1ccccn1)N1CCN(C(=O)CSc2ccccn2)CC1	14%
O=C(COC(=O)c1ccc(S(=O)(=O)N2CCOCC2)cc1)NC1CCCCCC1	24%
CCN(CC)c1ccc(C2CC(=O)NC3=C2C(=O)CC(C)(C)C3)cc1 (stereo not drawn)	17%
C=CCSc1nnc(-c2ccccc2NC(=O)CC)c(=O)[nH]1	-6%
C=CCN=C(NC#N)SCC(=O)c1cccc(OC)c1	-6%
O=C(O)C1C2C=CC(O2)C1C(=O)Nc1ccccc1C(F)(F)F (stereo not drawn)	3%
COc1ccc(C[N+](C)(C)N)cc1OC	-10%[5.75 µM]
CCOC(=O)N1CCC(C(N)=O)CC1	-5%
O=C1NC(c2ccccc2)(C(F)(F)F)SC2=NCCCN12 (stereo not drawn)	3%
Cc1csc(NC(=O)C(CC(C)C)NS(=O)(=O)c2ccc3c(c2)oc(=O)n3C)n1 (stereo not drawn)	4µM*[single pt active]
CCc1ccc(-c2nc(CN3CCC(C(=O)N4CCN(c5ccccn5)CC4)CC3)c(C)o2)cc1	149%
CCCCOCCOCCOCc1cc2c(cc1CCC)OCO2	50%
BrC(Br)Br	-11%
O=C(Cn1cnc2ccccc2c1=O)NCc1ccco1	-5%
CCCCn1c2nc3ccccc3nc2c2c(=O)n(C(C)CC)cnc21 (stereo not drawn)	123%
O=C(O)C1CCCCC1C(=O)Nc1nc(-c2cccs2)cs1 (stereo not drawn)	-14%
COc1ccc(Cc2nnc(NC(=O)c3cccs3)s2)cc1	0%
Cc1cc(NC(=O)COC(=O)C2COc3ccccc3O2)no1 (stereo not drawn)	-16%
Remaining list, next part.
SMILES	AmpC nodet inh
CCOc1ccc(-c2cc(CCCC(=O)Nc3cc(OC)ccc3OC)no2)cc1	27%
CCOCCCNC(=O)CN1C(=O)CSc2cc(S(=O)(=O)N3CCCCCC3)ccc21	50%
CCCn1nnnc1SCC(=O)Nc1nnc(CC)s1	-5%
CC(=O)c1ccc(NS(=O)(=O)c2ccccc2)cc1	-11%
Cc1ccc(NC(=O)c2ccccc2)s1	-10%
Clc1cccc(Cl)c1COc1ccccn1	8%
Cn1c(=O)c2c(nc(SCC(=O)OCc3ccccc3)n2C)n(C)c1=O	8%
CC(C)NS(=O)(=O)c1cc(C(=O)O)ccc1Cl	-4%
COc1cc2c(cc1NC(=O)CN1CCN(S(=O)(=O)c3ccc(F)cc3)CC1)oc1ccccc12	-2%
CSc1ccc(S(=O)(=O)NCCOc2ccccc2C)cc1	-24%
CCCCN(CCCNC(=O)C1CCN(S(=O)(=O)CC)CC1)c1ccccc1	100%
CC1(C)CC(n2c(=S)[nH]c3ccccc3c2=O)CCO1 (stereo not drawn)	-2%
O=c1[nH]c(CN2CCN(c3ccccc3)CC2)nc2ccccc12	6%
CSc1nc(C)c2cc(C)oc2n1	6%
O=C(Cn1cnnn1)Nc1ccccc1Cc1ccccc1	5%
COc1cc(-c2cccs2)cc(=O)c2c(C)oc(C)c12	29%
CCOc1ccccc1NC(=O)CCSc1nc2n[nH]c(C)c2c(=N)n1-c1ccccc1Cl	43%
CS(=N)(=O)CC[C@H](N)P(=O)(O)O (stereo partly drawn)	2%[5.75 µM]
CC(=NCc1ccco1)c1c(C)[nH]n(-c2nc3ccccc3s2)c1=O	9%
CC(NC(=O)Cc1ccc(F)cc1)C(c1cccs1)N1CCN(C)CC1 (stereo not drawn)	-4%

Arranged by length of the SMILES (descending): some entries from above
SMILES	AmpC nodet inh
Cc1ccc(C)c(N2CCN(C(=O)CN3C(=O)c4ccccc4C3=O)CC2)c1	69%
CCCCn1c2nc3ccccc3nc2c2c(=O)n(C(C)CC)cnc21 (stereo not drawn)	123%
Cc1cc(N2C(=O)C3CC=CCC3C2=O)cc(C)c1Br (stereo not drawn)	32%

(continued)
SMILES	AmpC nodet inh
COC(=O)N1CCC2(CCN(C(=O)NC(C)C)CC2)CC1	-12%
Cc1ccc(N2C(=O)c3ccc(C(=O)NCCN4CCOCC4)cc3C2=O)cc1	53%
C=C(C)Cn1c(CCCNC(=O)CC)nc2ccccc21	2%
COc1ccc(-n2c(Cc3cccn3C)nnc2SCC(=O)Nc2cccc(OC)c2)cc1	98%
COc1ccc(OC)c(NC(=O)c2c(NC(=O)c3ccco3)sc3c2CCC3)c1	9%
COCCN(C(=O)c1csnn1)C(C(=O)NC1CCCCC1)c1cccs1 (stereo not drawn)	-1%
C=CCNc1oc(-c2ccc(OCC)cc2)nc1C#N	-8%
C=CCNC(=O)CCCOc1cc(C)ccc1C	27%
Cn1nccc1C(=O)NCCN1C(=O)OC(C)(C)C1(C)O (stereo not drawn)	-4%
N#C/C(=C(/O)CSc1nnc(Cc2cccs2)n1C1CCCCC1)c1nc2ccccc2[nH]1	-6%
COc1ccc(C2CC(=O)c3c(C)nc(N4CCN(c5ccccc5)CC4)nc3C2)cc1 (stereo not drawn)	1%
COc1ccc(NC(=O)C2Cc3ccccc3CN2C(=O)c2ccccc2)cn1 (stereo not drawn)	18%
O=C(c1ccc(N2CCCC2=O)cc1)N1CCCCCC1	3%
CN1CCN(c2ncc3nc(-c4ccccc4)c(=O)n(C)c3n2)CC1	36%
COc1ccc(CCNc2nc(-c3ccco3)cc(C(F)(F)F)n2)cc1OC	65%
OCC(CO)(CO)N=Cc1c(O)ccc2ccccc12	-7%
CN(C)c1ccc(C(c2nnnn2CCOC(=O)Nc2ccc(Cl)cc2)N2CCOCC2)cc1 (stereo not drawn)	111%
O=C(NCC1CCCO1)c1c(O)c2ccccc2[nH]c1=O (stereo not drawn)	-3%
COc1cccc(-c2nnc(SCC(=O)Nc3cc(C)on3)o2)c1	14%
CC(C)OC(=O)c1c(NC(=O)c2cccs2)sc2c1CCCC2	-3%
COc1ccc(N2CCn3c2nc2c3c(=O)n(CCc3ccccc3)c(=O)n2C)cc1	4%
O=c1c(-c2ccc(Cl)cc2)nc2cnc(N3CCNCC3)nc2n1CCc1ccccc1	62%
CCc1c(C)sc(NC(=O)c2ccc(Br)o2)c1C(=O)OC	2%
CCCCc1nc2ccccc2n1Cc1nnc2n1-c1ccccc1SC2	24%
COc1ccc(CCNC(=O)COc2ccc(S(=O)(=O)N3CCOCC3)cc2)cc1OC	38%
Cn1nnnc1SCc1ccc(C(=O)Nc2nccs2)cc1	-8%
Cc1ccc(S(=O)(=O)NC(C(=O)OCC(=O)NC(=O)c2cccn2C)C(C)C)cc1 (stereo not drawn)	13%
CCOc1cccc2c1OC1(C)CC2NC(=O)N1c1cccc(F)c1 (stereo not drawn)	19%
CCCCN(C(=O)CN1C(=O)C2CC=CCC2C1=O)c1c(N)n(CCC)c(=O)[nH]c1=O (stereo not drawn)	-4%
Cc1cc(C)n2nc(SCC(=O)c3ccc[nH]3)nc2n1	31%
CC(=O)NCCNc1nc(-c2ccccc2Cl)nc2ccccc12	-5%
CC(C)CC1NC(=O)N(CC(=O)c2ccc3c(c2)OCCO3)C1=O (stereo not drawn)	-1%
CC(C)Cn1c(-c2ccccc2F)n[nH]c1=S	-4%
O=C1C2C3C=CC(C3)C2C(=O)N1c1nccs1 (stereo not drawn)	-13%
Cc1ccc(NC(=O)CSc2nnc(Cc3cccn3C)n2-c2ccc(F)cc2)cc1	103%
CCN(CC)c1ccc(NC(=O)CN2C(=O)CC(C)(C)S(=O)(=O)c3ccccc32)c(C)c1	115%
COc1cc([C@H](O)C(=O)O)ccc1O	-20%
C[C@@](O)(CNS(=O)(=O)c1ccccc1)c1ccccc1	15%[5.75 µM]
Cc1cccc2cc(CN(CC3CCCO3)C(=O)NC3CCCCC3)c(=O)[nH]c12 (stereo not drawn)	65%
CCOC(=O)CC(=O)Nc1c(C)cc(C)cc1C	4%
C/C(N)=C(/C#N)C(=O)COC(=O)c1cc(S(=O)(=O)N2CCCCC2)ccc1C	40%
O=C(Cn1nnc(-c2ccccc2NC(=O)c2ccccc2F)n1)NCc1ccco1	-5%
O=C(Nc1nnc(C2CCCO2)s1)c1cccs1 (stereo not drawn)	-8%
O=C1NCCCC2c3cc(O)c4ccccc4c3OC12N1CCCCC1 (stereo not drawn)	25%
C=CCOc1nc2c(c(=O)n(C)c(=O)n2C)n1C	-1%
O=C(COc1cccc2cccnc12)NCC(F)(F)F	4%
Cc1cccc(N(C(=O)CCC(=O)Nc2ccccn2)C(C(=O)NC(C)C)c2ccc(O)cc2)c1 (stereo not drawn)	10%
O=C(Cn1[nH]c(=O)c2ccccc2c1=O)N1CC=C(c2ccccc2)CC1	25%
Cc1ccccc1NC(=O)C1Cc2ccccc2C(=O)O1 (stereo not drawn)	-2%
CCN(CC)c1ccc(-n2cc3c(=O)n(C)c(=O)n(C)c3c2)cc1	114%
Nc1ccc(N(S(=O)(=O)c2ccccc2)S(=O)(=O)c2ccccc2)c(Cl)c1	-12%[5.75 µM]

By substructure: the entries above containing two or more sulfur atoms
SMILES	AmpC nodet inh
O=S(=O)(c1cccc2ccccc12)N1CCSC1	-7%
Cc1cnc(NC(=O)CN(C)S(=O)(=O)c2ccc(Cl)cc2)s1	-4%
O=C(CSc1ccccn1)N1CCN(C(=O)CSc2ccccn2)CC1	14%
Cc1csc(NC(=O)C(CC(C)C)NS(=O)(=O)c2ccc3c(c2)oc(=O)n3C)n1 (stereo not drawn)	4µM*[single pt active]
O=C(O)C1CCCCC1C(=O)Nc1nc(-c2cccs2)cs1 (stereo not drawn)	-14%
COc1ccc(Cc2nnc(NC(=O)c3cccs3)s2)cc1	0%
CCOCCCNC(=O)CN1C(=O)CSc2cc(S(=O)(=O)N3CCCCCC3)ccc21	50%
CCCn1nnnc1SCC(=O)Nc1nnc(CC)s1	-5%
CSc1ccc(S(=O)(=O)NCCOc2ccccc2C)cc1	-24%
COCCN(C(=O)c1csnn1)C(C(=O)NC1CCCCC1)c1cccs1 (stereo not drawn)	-1%
N#C/C(=C(/O)CSc1nnc(Cc2cccs2)n1C1CCCCC1)c1nc2ccccc2[nH]1	-6%
CC(C)OC(=O)c1c(NC(=O)c2cccs2)sc2c1CCCC2	-3%
Cn1nnnc1SCc1ccc(C(=O)Nc2nccs2)cc1	-8%
O=C(Nc1nnc(C2CCCO2)s1)c1cccs1 (stereo not drawn)	-8%
Nc1ccc(N(S(=O)(=O)c2ccccc2)S(=O)(=O)c2ccccc2)c(Cl)c1	-12%[5.75 µM]

Screening data as filed in PubChem.

Some of the compounds tested, so the mix of outcomes need not match the whole.
